Bioassay records deposited in PubChem by National Center for Advancing Translational Sciences (NCATS).
ClpP mod = qHTS Assay for Activators of ClpP | ATP-dependent Clp protease proteolytic subunit (Bacillus subtilis (strain 168)), P80244 | purified B. subtilis ClpP, FRET peptide cleavage, 20 min | Potency, µM (titrated, usually from 57.5 µM), inactives show top-dose activity change, negative = active | 340,000 compounds, 1.9% hits; active = well fitted falling curve with a large enough effect; inconclusive = small, poorly fitted or top-dose-only effect; inactive = no such curve, though single readings can be large or run the other way; further: the source files actives as falling curves though it sought activators and does not explain the sign; nearly all actives have a fitted effect of over 65% in size; many hits overshoot -100%
Target sequence (P80244 whole entry, looked up): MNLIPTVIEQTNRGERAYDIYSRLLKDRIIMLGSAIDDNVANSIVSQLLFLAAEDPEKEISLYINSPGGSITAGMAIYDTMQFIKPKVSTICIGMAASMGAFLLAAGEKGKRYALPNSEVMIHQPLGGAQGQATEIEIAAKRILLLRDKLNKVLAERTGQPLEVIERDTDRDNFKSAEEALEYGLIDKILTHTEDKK
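Purified B. subtilis ClpP, 10 microg/mL final in Tris/HCl pH8 with KCl, BSA, glycerol and Tween-20, cleaved an Abz/nitrotyrosine-quenched decapeptide. Fluorescence (ex 320, em 430) was read at 0 and 20 min at room temperature. Delta was normalized to 5.8 microM ADEP and DMSO/no-enzyme controls.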
The depositor's hits bear a star; ? = inconclusive. Potency means the concentration at half of the fitted maximal effect. An excerpt; the hit share may differ from the screen's.

Molecule,ClpP mod
COc1ccccc1NC(=O)c1ccc2c(Cl)c3c(nc2c1)CCCC3,-13%
Cc1ccc(Cl)cc1N1CCN(C(=O)c2ccc3nc(N4CCC(C)CC4)sc3c2)CC1,-4.8%
CS(=O)(=O)c1ncc(N(Cc2ccco2)Cc2cccs2)c(C(=O)Nc2ccccc2F)n1,-3.2%
CCOc1ccccc1C(=O)Nc1ccc(-n2nncc2-c2ccccc2)cc1,-4.2%
COC(=O)CCCCCn1c(-c2ccccc2)cn2c3c(=O)n(C)c(=O)n(C)c3nc12,-2.0%
O=C(COc1cccc(Cl)c1)N1CCC(c2nc3ccccc3o2)CC1,-0.6%
CC1CCCCN1C(=O)CSc1n[nH]c(-c2ccccc2)n1 (stereo unspecified),1.1%
CC(C)NC(=O)CCC(=O)N1Cc2ccccc2Oc2ncccc21,-0.7%

Next part:
Molecule,ClpP mod
O=C(C[n+]1cccc2cc(Cl)ccc21)c1ccc(I)cc1,-15%
COc1ccc(-c2cn3nc(N4CCC(C(=O)Nc5ccc(C)cc5)CC4)sc3n2)cc1,1.3%
COc1ccc2c(c1)c1c(c(=O)n(-c3ccc(F)c(Cl)c3)c(=O)n1CC(=O)N1CCCC1)n2C,?
Cc1ccc2oc(=O)n(CCNC(=O)Nc3ccc(Cl)cc3)c2c1,0.9%
CCc1nn(CC(=O)NCc2ccc(OC)c(OC)c2)c(=O)c2cc3sc(C)cc3n12,-7.9%
Cc1ccc(S(=O)(=O)c2nc(-c3ccc(Cl)cc3)oc2N2CCCCCC2)cc1,-1.2%
COc1cc(C)c(S(=O)(=O)Nc2cccc(-c3ccc(N4CCCC4)nn3)c2)cc1C,-13%
CC1(C(=O)Nc2ncc(Cc3ccc(Br)cc3)s2)Cc2ccccc2C(=O)O1 (stereo unspecified),-4.8%

Additional compounds
Molecule,ClpP mod
COCCNC(=O)c1ccc(Cn2c(SCC(N)=O)nc3ccccc3c2=O)cc1,-4.4%
CN(C)c1ccc(/C=C2\Cc3ccccc3C2=O)cc1,2.4%
COc1ccc(-c2nc3n(n2)C(c2ccccc2OC)C(C(=O)Nc2cccnc2)=C(C)N3)cc1 (stereo unspecified),-12%
CN1CCN(c2nc3c(S(=O)(=O)c4ccccc4)nnn3c3ccsc23)CC1,-2.4%
Cc1ccc(C=O)cc1Cl,0.2%
CCOC(=O)c1cc2c(=O)n3ccccc3nc2n(CC2CCCO2)c1=NC(=O)c1ccc(OC)cc1OC (stereo unspecified),4.4%
CC(=O)NC(Cc1ccc(Cl)cc1)C(=O)NCC(N)C(=O)c1ccccc1 (stereo unspecified),-0.2%
COc1ccc(CNC(=O)Cc2c(C)c3c(O)cc(C)cc3oc2=O)cc1,4.2%

Next section.
Molecule,ClpP mod
Cc1ccc(Cc2c(C)nc3nc(SCC(=O)NCCC(C)C)nn3c2C)cc1,-0.3%
CC1CN(C(=O)CCC(=O)NCc2cccs2)c2cc(Cl)ccc2O1 (stereo unspecified),0.5%
Cc1cccc(NC(=O)C2CCC(CNS(=O)(=O)c3ccc(Br)s3)CC2)c1 (stereo unspecified),-3.1%
O=C1c2ccccc2C(=O)N1c1ccc2ncccc2c1,-3.6%
Cc1cccc(-c2nc(SCCCOc3ccc(Cl)c(C)c3)n3[nH]c(=O)cc3n2)c1,?
Cc1ccc(OCCSc2nc3ccccc3n2CC(=O)N2CCOCC2)cc1C,0.1%
CC(=O)Nc1nonc1-c1nnc(SCC(=O)Nc2cc(C)cc(C)c2)n1C,1.7%
O=C(Nc1cc(C(F)(F)F)ccc1Cl)c1cc2nc(-c3ccc4c(c3)OCO4)cc(C(F)(F)F)n2n1,-18%

(continued)
Molecule,ClpP mod
COc1cccc(N(Cc2nnc3n2CCCCC3)C(=O)Nc2cccc(Cl)c2)c1,-3.2%
CN(C)c1ccc(/C=C/c2ccnc3c2ccc2ccccc23)cc1,-0.5%
CCOC(=O)c1cc(S(=O)(=O)Nc2ccc(OC(F)(F)F)cc2)[nH]n1,-0.4%
COc1ccc(CNc2oc(/C=C/c3cccc(OC)c3)nc2C#N)cc1,4.4%
Oc1ccc(Cl)cc1C1=Nc2ccccc2N=C(c2cccc(Br)c2)C1,-2.1%
Cc1cc(C)c(NC(=O)C2CCCN(C(=O)c3cnn(-c4ccccc4)c3-n3cccc3)C2)c(C)c1 (stereo unspecified),0.4%
CCOC(=O)c1[nH]c2ccccc2c1NC(=O)c1ccc(C)c(C)c1,4.1%
COCC(=O)Nc1cccc(-c2nc3cccnc3s2)c1,4.6%

Other records:
Molecule,ClpP mod
CCOc1ccc(S(=O)(=O)NCC(c2ccc(N(C)C)cc2)N2CCCC2)cc1 (stereo unspecified),-0.3%
Cc1ccc(CNC(=O)C2CCN(S(=O)(=O)c3cn(C)cn3)CC2)cc1,-2.4%
COc1ccc(C(CC(=O)Nc2cc(Cl)c(OC)cc2OC)N2Cc3ccccc3C2=O)cc1 (stereo unspecified),-3.6%
Cc1ccc(OCC(=O)Nc2sc3c(c2C(N)=O)CCCC3)c(C(C)(C)C)c1,-11%
CC(C)c1ccc(CNCCSc2nnnn2-c2ccccc2)cc1,0.8%
CCCN(C(=O)c1nn(-c2ccc(OC)c(Cl)c2)c(=O)c2c1c1ccccc1n2C)c1ccccc1F,-10%
COc1ccc(-c2cc(C(F)(F)F)n3nc(C(=O)NCC45CC6CC(CC(C6)C4)C5)cc3n2)cc1,-13%
CC(C)COc1ccc(C(=O)Nc2ccc(S(=O)(=O)Nc3ncccn3)cc2)cc1,-1.3%

Remaining list, next part.
Molecule,ClpP mod
Cc1ccc(OCC(=O)NCC(=O)OCc2cc(=O)n3nc(CC(C)C)sc3n2)cc1,-6.9%
CCOC(=O)C1CCN(C(=O)C2CCN(c3nnc(C)c4c(C)n(-c5ccccc5)nc34)CC2)CC1,?
C=CCc1ccccc1OCCn1c(C2CC(=O)N(Cc3ccc(F)cc3)C2)nc2ccccc21 (stereo unspecified),0.9%
COc1cc(C(=O)NCC(c2ccco2)S(=O)(=O)c2cccs2)cc(OC)c1OC (stereo unspecified),-0.3%
COc1ccc(NC(=O)CN2CCCN(S(=O)(=O)c3ccc(Br)cc3)CC2)c(OC)c1,-3.1%
CCOc1ccccc1NC(=O)Cn1nc2c3cc(F)ccc3n(Cc3cccc(C)c3)cc-2c1=O,2.0%
COc1ccc(C)cc1NC(=O)c1oc2ccc(S(=O)(=O)N(C)C3CCCCC3)cc2c1C,-8.5%
CCOC(=O)c1c(C)oc2nc(C)nc(NCC3CCN(Cc4cccc(C)c4)CC3)c12,-9.3%

Next part.
Molecule,ClpP mod
CCCCCCCCCC[n+]1ccc(/C=C/c2c[nH]c3ccccc23)c2ccccc21,4.6%
Cc1ccc(C)c(S(=O)(=O)c2nnn3c2nc(N2CCN(C)CC2)c2sccc23)c1,-4.9%
COC(=O)c1sccc1S(=O)(=O)N(CC(=O)Nc1ccc(C)c(F)c1)c1ccc(C)c(C)c1,-3.0%
O=C1c2ccccc2C(=O)N1c1nc(-c2ccc(Cl)cc2)cs1,-0.8%
CC(C)(C)C(=O)Nc1ccc2c(c1)C(=O)C(=O)c1ccccc1-2,3.8%
COC(=O)C1=C(c2ccccc2)c2ccccc2S(=O)(=O)N1CC(=O)Nc1ccc(OC)cc1OC,0.3%
Cc1cc(=O)[nH]c2nnc(SCC(=O)Nc3cc(C(F)(F)F)ccc3Cl)n12,-8.0%
O=C(CSc1nc(=O)[nH]c2c1CCCC2)NCc1ccc(Cl)cc1,-2.4%

The listing continues:
Molecule,ClpP mod
CCCCOC(=O)c1ccc(NC(=O)c2ccc3c(c2)CCN3S(C)(=O)=O)cc1,-2.9%
CCOc1ccc(C(=O)Nc2ccc(-c3nnc4n3CCCCC4)cc2)cc1OCC,-2.4%
Cc1ccc(CNS(=O)(=O)c2ccc(-c3cc(C(F)(F)F)on3)s2)cc1,0.7%
CCCNC(=O)CSc1nc2ccccc2nc1Cc1ccc(Cl)cc1,-4.3%
CCCCCN1C(C(=O)c2ccccc2)=C(NC(=O)c2ccc(OC)cc2)c2ccccc2S1(=O)=O,0.2%
COc1ccc(Nc2cc(C)c3cc(NC(=O)Cc4c(F)cccc4Cl)ccc3n2)cc1,-17%
Cc1cc(C)cc(NC(=O)Nc2c[nH]c(=O)[nH]c2=O)c1,1.0%
COc1ccc(NC(=O)C(C)n2c(C)c3cnn(-c4ccccc4)c(=O)c3c2C)cc1Cl (stereo unspecified),1.9%

4 entries from above, as labelled records:
> CCCNC(=O)CSc1nc2ccccc2nc1Cc1ccc(Cl)cc1
  ClpP mod = -4.3%

> CCCCCN1C(C(=O)c2ccccc2)=C(NC(=O)c2ccc(OC)cc2)c2ccccc2S1(=O)=O
  ClpP mod = 0.2%

> COc1ccc(Nc2cc(C)c3cc(NC(=O)Cc4c(F)cccc4Cl)ccc3n2)cc1
  ClpP mod = -17%

> Cc1cc(C)cc(NC(=O)Nc2c[nH]c(=O)[nH]c2=O)c1
  ClpP mod = 1.0%

Going on with the list.
Molecule,ClpP mod
COc1ccc(NC(=O)CCc2nnc3n(Cc4ccccc4Cl)c(=O)c4ccccc4n23)cc1,-0.1%
COc1cccc(C2CC(=O)Nc3c2c(=O)n(C)c2nc4ccccc4n32)c1OC (stereo unspecified),4.3%
Cc1ccc(NC(=O)c2ccc(-c3ccccc3)s2)cc1,47%
COC(=O)C(CCSC)NC(=O)c1c(C)oc2ncn(CC(C)C)c(=O)c12 (stereo unspecified),3.6%
CCOC(=O)c1ccc(NC(=O)COC(=O)c2cn(CC)c3nc(C)ccc3c2=O)cc1,-4.8%
COc1ccc(OC)c(NC(=O)c2c(NCc3sccc3C)sc3c2CCCCC3)c1,-0.3%
COCCNC(=O)CCN1C(=O)c2cccnc2Oc2ccc(C)cc21,2.2%
Cc1cccc2c(=O)cc(CSc3ccccc3NC(=O)c3cccc(F)c3)[nH]c12,1.8%

Other structures.
Molecule,ClpP mod
COc1cccc(C(=O)N2c3cc(C)ccc3C(C)(c3ccccc3)CC2(C)C)c1 (stereo unspecified),2.2%
CC(CNC(=O)c1ccc(Cn2c(=O)c3cccn3c3cccnc32)cc1)c1ccccc1 (stereo unspecified),?
COc1ccc(OC)c(NC(=O)Cn2cnc3onc(-c4ccc(Cl)cc4)c3c2=O)c1,4.2%
CCOC(=O)c1ccc(NC(=O)CCCn2nc(C)c3sc4ccccc4c3c2=O)cc1,-3.4%
Cc1ccccc1Cn1c(CN2CCC(C(=O)NCc3ccc(Cl)cc3)CC2)cc2ccccc21,-21%
Cc1cc(C)n(-c2nc3ccccc3nc2Nc2ccc(Cl)c(Cl)c2)n1,2.9%
Cn1cnc(S(=O)(=O)N2CCC(C(=O)Nc3ccc(Cl)c(C(F)(F)F)c3)CC2)c1,1.8%
O=C(NCCc1ccccc1)C(=O)Nc1cccc(Br)c1,2.1%

Three entries from above, field by field:
Cc1cc(C)n(-c2nc3ccccc3nc2Nc2ccc(Cl)c(Cl)c2)n1
  ClpP mod: 2.9%

Cn1cnc(S(=O)(=O)N2CCC(C(=O)Nc3ccc(Cl)c(C(F)(F)F)c3)CC2)c1
  ClpP mod: 1.8%

O=C(NCCc1ccccc1)C(=O)Nc1cccc(Br)c1
  ClpP mod: 2.1%

(more compounds)
Molecule,ClpP mod
Cc1oc2ccc(O)c(CN3CCCC3)c2c1C(=O)Nc1ccc(C(C)C)cc1,-0.2%
Cc1cc(C)cc(Nc2cc(C)nc3nc(-c4ccco4)nn23)c1,-0.8%
O=C(NCCc1ccccc1)C1CCN(Cc2cc3ccccc3n2Cc2cccc(Cl)c2)CC1,-21%
CN(C)CCN(Cc1ccccc1)S(=O)(=O)c1ccc2[nH]c(=O)ccc2c1,-12%
Cc1ccc(N2CCN(C(=O)NCc3noc4ccc(C)cc34)CC2)c(C)c1,1.2%
Cc1ccc(Cl)cc1NC(=O)C1CCN(C(=O)c2cnn(-c3ccccc3)c2-n2cccc2)CC1,1.4%
Cc1cc(-c2ccc(C)c(S(=O)(=O)N(C(C)C)C3CCCCC3)c2)on1,-0.7%
COc1cccc2sc(N(Cc3cccnc3)C(=O)C3CCCCC3)nc12,-4.1%

Next section:
Molecule,ClpP mod
O=C(NC1CC(=O)N(c2cccc(F)c2)C1)c1ccc(S(=O)(=O)N2CCCCC2)cc1 (stereo unspecified),1.0%
O=C(NCc1cccs1)c1ccc(Cn2c(SCc3ccccc3)nc3cccnc32)cc1,4.0%
Cc1c(C(=O)NCc2cccc(Br)c2)oc2ccc3c(c12)C(=O)CC(C)(C)O3,-11%
COc1cccc(CNC(=O)c2ccc(CS(=O)Cc3ccc(Cl)cc3)o2)c1 (stereo unspecified),1.1%
COc1cc(Cl)c(C)cc1NC(=O)Cn1ncc2c(=O)oc3ccccc3c21,1.0%
COC(=O)c1scc(-c2ccc(C)cc2)c1S(=O)(=O)N1CCN(c2ccc(F)cc2)CC1,1.5%
CCOc1ccccc1NC(=O)c1c(NC(=O)c2ccncc2)sc2c1CCC(C(C)(C)C)C2 (stereo unspecified),5.7%
COc1ccc(CNC(=O)c2cc3cc4ccc(C)cc4nc3o2)cc1,-14%

(next part)
Molecule,ClpP mod
Cc1nc(-c2ccc(F)cc2)sc1CCNC(=O)c1ccc(C(C)(C)C)cc1,4.3%
NC(=O)CSc1ccc2nnc(-c3ccncc3)n2n1,4.5%
CN(C)c1ccc(C(CNC(=O)c2c(F)cccc2Cl)N2CCOCC2)cc1 (stereo unspecified),0.1%
CC(C)(C)c1ccc(C(=O)Nc2onc3c2CCCC3)cc1,1.2%
